UCH37 inh: inhibitors of human deubiquitinating enzyme UCH37; AID 588478; purified proteasome/UCH37, Ub-AMC cleavage fluorescence; inhibition, % (test concentration not listed); Q9Y5K5; actives 0.33% (n = 330,000);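 active means mean of two replicates above 20%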;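 further: 0% = compound-free wells with enzyme and 100% = wells lacking proteasome; stock transfer was 100 nL into about 20 µL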
Target sequence (Q9Y5K5 whole entry, looked up): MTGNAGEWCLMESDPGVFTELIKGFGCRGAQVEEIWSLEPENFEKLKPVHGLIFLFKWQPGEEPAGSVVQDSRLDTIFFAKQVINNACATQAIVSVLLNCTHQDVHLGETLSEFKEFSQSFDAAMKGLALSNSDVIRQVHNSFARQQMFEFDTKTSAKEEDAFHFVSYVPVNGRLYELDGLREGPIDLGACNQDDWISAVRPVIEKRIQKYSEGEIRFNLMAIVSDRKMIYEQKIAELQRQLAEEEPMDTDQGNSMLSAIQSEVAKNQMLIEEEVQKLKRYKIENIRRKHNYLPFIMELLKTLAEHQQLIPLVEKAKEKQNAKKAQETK
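system = Proteasome-associated human UCH37 deubiquitinase | amount = 0.15 nM proteasome as dispensed | medium = pH 7.4 Tris-HCl (50 mM) with ovalbumin, ATP-MgCl2, DTT | incubation = 30 min preincubation with enzyme, 25 min cleavage at room temperature | detection = AMC fluorescence 355/460 nm | read-out basis = percent inhibition | controls = no-proteasome and no-compound wells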
A1 inh: inhibitors of the anti-apoptotic protein A1, read as caspase activation; actives 0.066% (n = 330,000); MEF A1-2A-BIM cells, Caspase-Glo 3/7 luminescence, 3 h; percent of clofoctol response, vehicle zero; caspase activation, % (no concentration beside the values);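 active means over half of replicate activation scores above 10%, or exactly half above 10 with the replicate mean above 10; inconclusive means replicate mean below 10 yet half the replicates above 10; inactive means over half of replicates below 10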;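 further: wells of about 30 µL received 50 nL stock; many hits fall short of the cut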
T cruzi repl: T. cruzi replication inhibition. T. cruzi beta-gal in NIH3T3, luminescence, 90 h. inhibition, % (no concentration beside the values). actives 1.4% (n = 300,000). AID 1885;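 active means mean inhibition across valid replicates above about 55%, limit read from the data; inconclusive means mean below that limit but half or more replicates reach it; inactive means mean below it, under half of replicates reach it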;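 further: signal also drops with host cell toxicity which is not excluded here; 0% = plate median of DMSO wells and 100% = zero luminescence signal; higher percent means less beta-gal luminescence so fewer parasites; stock transfer was 50 nL into about 50 µL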
MLL AF4-AF9 inh: blocks AF4 peptide binding to human AF9. inhibition, % at 10 µM. P42568. actives 0.47% (n = 350,000). AlphaScreen, biotin-AF4 peptide binding to FLAG-AF9;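 active means every replicate reaching a set inhibition limit, whatever the replicate mean, cut at about 25% in these data; inconclusive means mean inhibition reaches that limit but some replicates miss it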;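 further: 0% = plate neutral control median and 100% = total signal loss; the record names both 10 and 1 µM as test concentration; the first replicate is given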
rRNA inh HTS: inhibitors of bacterial rRNA selective over humanized ribosomes. GFP signal change (wild-type ribosome), % (test concentration not listed). actives 1.6% (n = 350,000). AID 720706. E. coli WT GFP vs humanized-ribosome RFP mutants, fluorescence, 24 h; hits give low values; DMSO median 0, no signal -100;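 active means significant combined selectivity score with lowered wild-type GFP, culture density cut under 30%, mutant RFP and density less affected; inactive means any of these conditions unmet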; further: one replicate is shown; some compounds called inactive have numbers as strong as hits
Beta apoptosis: beta cell apoptosis inhibition. INS-1E cytokine-induced death, ATP luminescence, 48 h; percent of positive-control rescue, neutral wells zero. actives 0.8% (n = 300,000). AID 435005. protection from apoptosis, % (concentration not given with the values);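 active means all replicates at 75% or more, or half of them and the mean; inconclusive means half reach 75% but not the mean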;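 further: 0% = cytokine-treated negative control wells and 100% = positive control rescue; higher means more ATP so stronger rescue from cytokine killing; wells of about 40 µL received 100 nL stock; the first replicate is given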
FGF22 binding: shifts melting point of recombinant human FGF22 | calls only at 9.99 µM | AID 651658 | actives 1.5% (n = 340,000) | recombinant FGF22 thermal shift, SYPRO orange fluorescence; percent of sucrose octasulfate shift, DMSO zero;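 active means melting point raised past a set limit in the mean and every replicate; inconclusive means no clear call; three in four hits are not shown here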
Target sequence (Q9HCT0 whole entry, looked up): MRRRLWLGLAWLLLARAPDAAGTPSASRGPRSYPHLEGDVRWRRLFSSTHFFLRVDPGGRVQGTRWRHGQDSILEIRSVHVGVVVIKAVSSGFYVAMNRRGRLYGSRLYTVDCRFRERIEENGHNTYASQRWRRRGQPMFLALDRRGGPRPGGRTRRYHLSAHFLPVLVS
E coli growth: E. coli growth inhibition | Escherichia coli growth, OD600, 23 h; hits give low values | actives 0.21% (n = 330,000) | AID 1053175 | OD600 absorbance (test concentration not listed);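 active means OD600 absorbance below the run mean of sample wells minus 3.6 SD, in any replicate, cut at about 0.56 in these data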;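 further: stock transfer was 300 nL into about 60 µL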
rRNA inh HTS OD600: recorded beside rRNA inh HTS, whose call it bears; OD600 change, %; measured here: OD600 growth;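 optical density of the mix in the first replicate; 0 = DMSO median and -100 = no signal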
rRNA inh HTS RFP: second read-out of rRNA inh HTS, no call of its own (marks repeat the call); RFP signal change, %; measured here: RFP humanized mutant strains;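 first replicate; 0 = DMSO median and -100 = no signal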
* marks the source's active call; other numbers are inactive results; i = inactive; ? = inconclusive; nt = no result given; + = active, no number.

Every second line gives: rRNA inh HTS RFP	rRNA inh HTS OD600	FGF22 binding	rRNA inh HTS	E coli growth	A1 inh	UCH37 inh	MLL AF4-AF9 inh	T cruzi repl	Beta apoptosis
(1) CCOC(=O)C1CCCN(C(=O)CCNS(=O)(=O)c2ccc(Br)cc2)C1 (centres undefined)
  -1.1	-3	i	0	0.69	0.0	2.6	-3.3	nt	-11
(2) Cc1ccc(N(CCC#N)C(=O)COC(=O)c2cc(C)no2)cc1
  -3.1	11	+	3	0.66	-0.4	0.6	1.3	-23	-3
(3) Cc1ccc(C(=O)OCC(=O)NC2CCCc3ccccc32)o1 (centres undefined)
  1.7	19	i	7	0.64	-1.5	0.7	-8.5	nt	-12
(4) O=C(NCCc1ccccc1)c1ccc(Cl)c(S(=O)(=O)N2CCOCC2)c1
  1.7	5	i	12	0.68	nt	2.1	-0.4	-2	nt
(5) COc1ccccc1NC(=O)Cn1c(=O)c(N(C)C)c(N)n(C)c1=O
  -3.1	2	i	2	0.63	0.2	-0.1	-1.7	-4	0
(6) CC(=O)c1cccc(N(C(=O)CNC(=O)c2ccco2)C(C(=O)NC2CCCC2)c2ccco2)c1 (centres undefined)
  8.0	6	i	4	0.66	1.3	3.0	2.5	12	1
(7) Cc1ccc(Sc2c(CO)c(-c3ccccc3)nn2C)cc1
  3.2	-49	i	-30	0.71	-0.5	1.6	-3.1	-20	34
(8) CCCSC1=C(C#N)C(c2ccccc2OCC)CC(=O)N1 (centres undefined)
  nt	nt	nt	nt	0.64	?	2.3	nt	2	-3
(9) Cc1ccc(-n2c(=O)c3c4c(sc3n3c(=S)[nH]nc23)CCC4)cc1
  nt	nt	i	nt	0.65	-0.5	6.9	-0.7	6	-1
(10) Cc1ccnc(NC(=O)C(C)N2C(=O)c3ccccc3S2(=O)=O)c1 (centres undefined)
  -0.9	5	i	1	0.7	0.2	0.8	2.0	-14	-1
(11) CCNc1c(NS(=O)(=O)c2ccc(OC)cc2)c(=O)oc2ccccc12
  -0.6	5	i	5	0.71	0.3	1.4	-2.2	-6	3
(12) COC(=O)C1=C(C)N(C)C(=O)NC1c1cccc2ccccc12 (centres undefined)
  -1.5	-12	i	-7	0.67	0.3	-0.2	2.5	-3	-7
(13) COc1ccc(NC(=O)CN(C)C(=O)c2ccc3c(c2)NC(=O)CS3)cc1
  nt	nt	i	nt	0.7	-0.2	5.5	-1.9	nt	-8
(14) O=C(CSc1nnc(Cc2ccccc2)o1)c1ccc2c(c1)OCO2
  2.1	-18	i	-8	0.62	-0.6	4.3	-4.1	2	0
(15) Cc1nn(Cc2ccccc2)c(Cl)c1C(=O)OCC(=O)NC(=O)NC12CC3CC(CC(C3)C1)C2
  -1.2	4	i	9	0.72	0.1	1.1	6.6	23	0
(16) Cc1cc(NC(=O)C2CC(c3ccc(F)cc3)=NO2)no1 (centres undefined)
  1.2	12	i	9	0.65	-0.2	3.1	-2.2	-4	1
(17) O=S(=O)(Nc1cccc(Br)c1)c1cccc2nsnc12
  7.3*	-12*	i	-33*	0.59	0.1	3.9	0.2	-1	-5
(18) CCN(CC)C(=O)c1ccc(S(=O)(=O)N2CCC(c3nc4ccccc4s3)CC2)cc1
  nt	nt	nt	nt	0.7	-0.4	6.6	nt	9	100*
(19) CCN1CCN(CCCNC(=O)Cn2nc(C)n3nc(-c4ccccc4)cc3c2=O)CC1
  2.4	3	i	6	0.68	-0.9	1.4	3.5	9	-7
(20) O=C(Nc1ccc(Cl)cn1)c1ccc2nccnc2c1
  -3.0	0	i	-1	0.66	-2.7	3.7	-8.0	1	-3
(21) CCOC(=O)C1=C(C)N(CCCCCC(=O)O)C(=O)NC1c1ccc([N+](=O)[O-])cc1 (centres undefined)
  -2.1	11	i	2	0.68	0.4	0.4	2.5	-3	-5
(22) COc1ccc(-n2c(Cc3ccccc3)nnc2SCc2ccc([N+](=O)[O-])cc2)cc1
  -1.4	-18	i	-17	0.67	-0.2	4.3	5.6	13	2
(23) O=C1C(c2ccncc2)N(CCC2=CCCCC2)C(=O)CN1C1CCCCC1 (centres undefined)
  nt	nt	nt	nt	0.73	0.0	8.7	nt	52	2
(24) CC(NS(=O)(=O)c1ccc(Br)cc1)C(c1cccs1)N1CCOCC1 (centres undefined)
  7.5	-1	i	-2	0.77	1.0	5.7	3.3	6	-4
(25) CC(C)(C)NC(=O)C1CN(S(=O)(=O)c2ccccc2)CCN1S(=O)(=O)c1ccccc1 (centres undefined)
  nt	nt	nt	nt	0.75	-1.0	-0.6	nt	11	-1
(26) O=C(COC(=O)CCc1ccccc1)Nc1ccc(F)cc1Cl
  0.7	-7	i	2	0.71	1.1	3.2	-1.8	-9	nt
(27) Cc1noc(/C=C/N(C)C)c1S(=O)(=O)N1CCCC(C(=O)Nc2ccc3c(c2)OCO3)C1 (centres undefined)
  -2.1	9	i	5	nt	0.1	6.2	4.8	nt	4
(28) COC(=O)c1nnn(CC(=O)Nc2cc(Cl)ccc2C)c1C(=O)OC
  nt	nt	nt	nt	0.7	0.7	-0.5	nt	-9	-4
(29) Cn1cc(CNC(=O)c2ccc3nc(Cc4ccccc4F)oc3c2)cn1
  -1.7	-3	i	-4	0.72	-1.1	0.3	-0.5	4	18
(30) CC(c1ccccc1)N1CCn2c(nc3cc(NS(C)(=O)=O)ccc32)C1 (centres undefined)
  0.4	12	i	7	0.7	0.8	1.7	-2.5	-6	-4
(31) Cc1csc(NC(=O)c2ccc(C(=O)Nc3nc(C)cs3)cc2)n1
  nt	nt	nt	nt	0.69	-7.8	-1.7	nt	-12	2
(32) COc1ccc(/C=C2\CCC/C(=C\c3ccc(OC)c(OC)c3OC)C2=O)c(OC)c1OC
  -19	-33	i	-25	0.68	nt	-2.3	17	3	nt
(33) COc1ccccc1CNS(=O)(=O)c1ccc(NC(C)=O)cc1
  nt	nt	nt	nt	0.69	-1.1	2.7	nt	-19	4
(34) COc1ccc(N2CCN(C(=O)c3cccc(Cn4cc(Cl)cn4)c3)CC2)cc1
  nt	nt	nt	nt	0.66	0.4	2.1	nt	4	-6
(35) CC(C)=CCC[C@](C)(O[C@@H]1O[C@H](CO[C@@H]2O[C@H](CO)[C@@H](O)[C@H](O)[C@H]2O)[C@@H](O)[C@H](O)[C@H]1O)C1CC[C@]2(C)C1C(=O)CC1[C@@]3(C)CC[C@H](O[C@H]4O[C@@H](CO)[C@H](O)[C@@H](O)[C@@H]4O)C(C)(C)C3CC[C@]12C (some centres undefined)
  -0.6	11	i	11	nt	-0.2	-2.1	-3.3	nt	3
(36) CC1CCN(C(=O)Cn2c(=O)n(CCc3ccccc3)c(=O)c3ccccc32)CC1
  nt	nt	nt	nt	0.8	-0.5	-0.4	nt	21	4
(37) c1nc(N2CCCCCC2)c2[nH]cnc2n1
  0.4	7	i	4	0.73	0.3	7.5	1.9	-13	-8
(38) CCOC(=O)C1CCCN(c2ncnc3c2oc2ccccc23)C1 (centres undefined)
  nt	nt	nt	nt	0.65	-0.4	2.1	nt	-6	1
(39) Cc1ccc(CSc2nc3nc(C)cc(C)n3n2)cc1
  -1.9	0	i	-4	0.67	-0.3	1.5	0.6	4	-6
(40) O=C1c2cccc3cccc(c23)C(=O)N1CCCn1ccnc1
  -2.9*	-7.9*	i	-21*	0.63	0.8	-28	3.6	17	7
(41) CC(C)(C)n1nc2c(c1NC(=O)c1ccc(C(F)(F)F)cc1)CS(=O)(=O)C2
  0.4	11	i	0	0.71	0.6	-0.1	-3.5	3	-4
(42) CCc1ccccc1NC(=O)CN(C)C(=O)Cn1cnc2ccc(Cl)cc2c1=O
  -2.1	9	i	5	0.7	0.5	0.1	-3.6	nt	0
(43) Cc1ccc(S(=O)(=O)N(C)CC(=O)N(CC(C)C)C2CCS(=O)(=O)C2)cc1 (centres undefined)
  -0.6	16	i	4	0.7	0.8	0.1	1.1	-2	0
(44) CC1CCCN(C(=O)COC(=O)COc2ccc(C#N)cc2)C1 (centres undefined)
  -0.2	17	i	-1	0.63	-0.3	-0.4	1.0	nt	-2
(45) CCC(=O)Nc1ccc(C(=O)OCc2ccccc2Cl)cc1
  nt	nt	nt	nt	0.65	-0.8	4.8	nt	61*	6
(46) CCc1cc(C(=O)OC)c(NC(=O)CSc2nccn2C)s1
  1.5	-30	i	-2	0.71	0.8	1.0	6.7	5	-3
(47) CCOC(=O)c1cnc2c(ccc3ccccc32)c1NCCO
  nt	nt	nt	nt	0.77	-0.2	-21	nt	38	-5
(48) CN(CC(=O)Nc1ccc(Cl)cc1)CC(=O)Nc1cccc(Br)c1
  -13	-79	i	-56	0.66	0.6	2.4	3.9	-6	-6
(49) CC(=O)Nc1ccc(S(=O)(=O)N/N=C/c2cccnc2)cc1
  6.6	17	i	26	nt	0.7	nt	2.2	-13	-3
(50) COc1ccc(C(=O)Oc2cc(N)n(S(=O)(=O)c3ccc(C)cc3)n2)cc1
  -1.7	12	i	4	0.66	0.2	1.8	0.0	-8	-5

Some of the entries above, set out differently:
48. CN(CC(=O)Nc1ccc(Cl)cc1)CC(=O)Nc1cccc(Br)c1
  rRNA inh HTS RFP: -13; rRNA inh HTS OD600: -79; FGF22 binding: i; rRNA inh HTS: -56; E coli growth: 0.66; A1 inh: 0.6; UCH37 inh: 2.4; MLL AF4-AF9 inh: 3.9; T cruzi repl: -6; Beta apoptosis: -6
49. CC(=O)Nc1ccc(S(=O)(=O)N/N=C/c2cccnc2)cc1
  rRNA inh HTS RFP: 6.6; rRNA inh HTS OD600: 17; FGF22 binding: i; rRNA inh HTS: 26; E coli growth: nt; A1 inh: 0.7; UCH37 inh: nt; MLL AF4-AF9 inh: 2.2; T cruzi repl: -13; Beta apoptosis: -3
50. COc1ccc(C(=O)Oc2cc(N)n(S(=O)(=O)c3ccc(C)cc3)n2)cc1
  rRNA inh HTS RFP: -1.7; rRNA inh HTS OD600: 12; FGF22 binding: i; rRNA inh HTS: 4; E coli growth: 0.66; A1 inh: 0.2; UCH37 inh: 1.8; MLL AF4-AF9 inh: 0.0; T cruzi repl: -8; Beta apoptosis: -5

Some of the compounds tested; count on the stated rates, not on these rows.
